# Cruzain inh Det: qHTS Assay for Promiscuous and Specific Inhibitors of Cruzain (with detergent); Cruzipain (Trypanosoma cruzi), P25779; purified cruzain, Z-FR-AMC fluorescence, 0.01% Triton; Potency, µM, inactives show max response, negative = inhibition, actives largely listed as inhibitors; hit rate 0.43% among 200,000; active = well fitted curve in the direction sought with a large enough effect; inconclusive = small, poorly fitted or top-dose-only effect, or another doubt; inactive = no such curve, though single readings can be large; an effect the other way counts as inactive or inconclusive;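 also: plate controls were neutral wells for no effect and buffer without enzyme for full effect; nearly all actives have a fitted effect of over 40% in size; top concentration of the series not given in the record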
# Target sequence (P25779 123-467 limits assumed): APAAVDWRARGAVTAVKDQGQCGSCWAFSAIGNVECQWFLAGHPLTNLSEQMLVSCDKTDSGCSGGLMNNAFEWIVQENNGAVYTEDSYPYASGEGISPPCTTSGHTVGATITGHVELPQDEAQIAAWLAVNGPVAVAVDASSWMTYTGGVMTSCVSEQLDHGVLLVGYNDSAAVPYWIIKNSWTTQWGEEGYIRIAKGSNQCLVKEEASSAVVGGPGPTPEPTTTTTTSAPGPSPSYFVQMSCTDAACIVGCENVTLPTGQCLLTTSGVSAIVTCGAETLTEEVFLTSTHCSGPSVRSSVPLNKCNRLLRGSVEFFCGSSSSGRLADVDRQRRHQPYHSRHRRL
#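 Steps: dispense cruzain (1.5 nM final) in acetate buffer pH 5.5 with DTT and 0.01% Triton X-100; pin-transfer compounds; incubate 15 min RT; add Z-FR-AMC (2 uM final); read fluorescence every 30 s, using the 60 s intensity change.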
# Marburg entry inh: qHTS for inhibitors of binding or entry into cells for Marburg Virus; Marburg virus pseudotyped entry inhibition, cell reporter; control for the full effect not named in the record; about a third of the inactives were read at about 46 µM; Potency, µM (top dose mostly 37.8 µM), for inactives: at the top dose activity change, negative = inhibition, actives largely listed as inhibitors; hit rate 1.8% among 300,000; AID 540276, 2011; active = well fitted inhibition curve with a large enough effect; inconclusive = small, poorly fitted or top-dose-only effect, or effect the other way; inactive = flat fitted curve, though single readings scatter; tested in HEK293 cells; about a fifth of its hits are not listed in these tables; also: % is scaled to controls: 0 for no effect and ±100 for the full control effect; luciferase read-out
# LASV entry inh: qHTS for Inhibitors of binding or entry into cells for Lassa Virus; hit rate 1.2% among 300,000; Potency, µM (doses to about 37.9 µM), inactives show top-dose activity change, negative = inhibition, most hits filed as inhibitors; AID 540256, 2011; Lassa virus pseudotype entry inhibition, cell reporter; control for the full effect not named in the record; active means well fitted inhibition curve with a large enough effect; inconclusive means small, poorly fitted or top-dose-only effect, or effect the other way; inactive means flat fitted curve, though single readings scatter; tested in HEK293 cells; also: % is scaled to controls: 0 for no effect and ±100 for the full control effect; nearly all actives have a fitted effect of over 50% in size; luciferase read-out
# SARS PLP yeast: qHTS of Yeast-based Assay for SARS-CoV PLP; hit rate 0.19% among 330,000; Potency, µM (top dose mostly 32.9 µM), for the others: at the highest dose activity, positive = growth rescue; S. cerevisiae expressing SARS-CoV PLpro, growth rescue; control for the full effect not named in the record; also: 0% is about no effect; nearly all actives have a fitted effect of over 55% in size; growth read by luminescence after 48 h
# Cruzain noTriton: qHTS Assay for Promiscuous and Specific Inhibitors of Cruzain (without detergent); hit rate 2.3% among 200,000; purified cruzain, Z-FR-AMC fluorescence, no detergent; Potency, µM, for inactives: max response, negative = inhibition, actives largely listed as inhibitors; active = well fitted curve in the direction sought with a large enough effect; inconclusive = small, poorly fitted or top-dose-only effect, or another doubt; inactive = no such curve, though single readings can be large; an effect the other way counts as inactive or inconclusive;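 also: plate controls were enzyme without inhibitor for no effect and buffer without enzyme for full effect; nearly all actives have a fitted effect of over 40% in size; top concentration of the series not given in the record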
#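 Purified cruzain at 1.5 nM, pre-incubated 15 min with compound at room temperature in 100 mM sodium acetate pH 5.5, 5 mM DTT, 0.00005% Triton X-100. Reaction started with 2 uM Z-FR-AMC; AMC fluorescence increase over 60 s gives rate.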
# RE007 growth inh: qHTS Assay for Inhibitors of the HIV-1 protein Vpr | Potency, µM (top dose mostly 92.2 µM), for the others: at the top dose activity change, negative = less growth | AID 651644, 2012 | hit rate 0.21% among 360,000 | S. pombe RE007 Vpr strain, BacTiter-Glo ATP luminescence, 24 h; control for the full effect not named in the record; active = well fitted falling curve with a large enough effect; inconclusive = small, poorly fitted or top-dose-only effect; inactive = no such curve, though single readings can be large or run the other way;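 also: % is scaled to controls: 0 for no effect and ±100 for the full control effect; nearly all actives have a fitted effect of over 50% in size; the assay follows cell death caused by Vpr and the record does not say whether a fall means rescue or toxicity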
#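 Fission yeast RE007 carrying one integrated HIV-1 vpr copy, seeded at OD 0.01 in PMG+AL medium with 23 nL pinned compound. Grown 24 h at 30 degrees; viability read by BacTiter-Glo luminescence after 5 min.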
# NS1 inh: qHTS Assay for Inhibitors of Influenza NS1 Protein Function; hit rate 0.4% among 270,000; S. cerevisiae slowed by influenza A NS1, growth recovery by OD600; Potency, µM (doses to about 46.1 µM), for the others: top-dose activity, positive = more growth; also: actives are rising curves; nearly all actives have a fitted effect of over 50% in size
#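 Growth recovery, yeast-based: influenza A NS1 expressed in S. cerevisiae causes slow growth, and suppressors are detected by OD600. The parent strain without NS1 is used as positive control.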
# StopGo reporter: High Throughput Screening for Foot and Mouth Disease Virus Antivirals | Potency, µM (highest dose often 57.9 µM), for the others: at the top dose signal change, negative = less light | human cells with a luciferase reporter of 2A StopGo recoding; control for the full effect not named in the record | AID 1159524, 2015 | hit rate 1.2% among 410,000; active = well fitted falling curve with a large enough effect; inconclusive = small, poorly fitted or top-dose-only effect; inactive = no such curve, though single readings can be large or run the other way; tested in HEK293T cells; also: % is scaled to controls: 0 for no effect and ±100 for the full control effect; nearly all actives have a fitted effect of over 45% in size; luciferase light after 4 h
# Active calls of the source: *; ? = inconclusive; / = no result given; & = joins results of further samples; [ ] = remark or other dose. Unless noted, calls follow the shape of the dose curve; as a rule, active means well fitted rising curve with a large enough effect; inconclusive means small, poorly fitted or top-dose-only effect; inactive means no such curve, though single readings can be large or run the other way. Potency is read from the fitted curve at half-maximal effect.
# Values run as follows: RE007 growth inh	NS1 inh	Marburg entry inh	Cruzain noTriton	LASV entry inh	StopGo reporter	SARS PLP yeast	Cruzain inh Det
CCOC(=O)c1c(NC(=O)Cc2ccccc2)sc2c1CC(C)(C)NC2(C)C
    11%	15%	/	/	/	-18%	3%	/
COc1cccc(C2C(C#N)=C(N)OC(C(C)(C)C)=C2C#N)c1 (stereo not given)
    -14%	-13%	-28%	-16%	19%	-22%	-7%	-3.3%
Cc1ccc(NC(=O)CN(c2ccc(Cl)cc2)S(=O)(=O)c2cc([N+](=O)[O-])ccc2Cl)cc1
    -13%	13%	?	?	?	-26%	-3%	-3.6%
O=C(CN1CCc2ccccc2C1)Nc1ccc(OC(F)(F)F)cc1
    -7%	1%	17%	/	-18%	0%	-2%	/
Brc1ccccc1OCCCCN1CCCCC1
    -9%	-10%	/	/	/	-4%	-3%	/
Cc1cc(C(=O)NNC(=S)NCC2CCCO2)cs1 (stereo not given)
    2%	2%	8%	-2%	1%	13%	5%	7.6%
CCCC(C)c1nnc(NC(=O)C2CCCO2)s1 (stereo not given)
    -10%	-67%	0%	-13%	20%	/	-2%	3.3%
Cc1ccc(S(=O)(=O)c2c(N)n(C)c3nc4ccccc4nc23)cc1
    -11%	-21%	-11%	11%	-1%	39%[activator]	-4%	-30%
O=C(Nc1cccc2nsnc12)c1cccnc1Cl
    -22%	9%	0%	-3%	0%	-8%	-8%	-0.9%
CCOc1ccc(NC(=O)COC(=O)c2ccc3ncsc3c2)cc1OCC
    2%	/	?	/	?	-5%	-4%	/
CCc1ccc(C(C)NC(=O)Cc2ccc(F)cc2)cc1 (stereo not given)
    3%	-3%	?	/	?	-17%	0%	/
O=C(O)CCCC(=O)N1N=C(c2ccccc2)CC1c1cccs1 (stereo not given)
    -1%	0%	2%[46.1 µM]	/	0%	0%	0%	/
COc1ccc(Cl)cc1NC(=O)COC(=O)CCCC1=NS(=O)(=O)c2ccccc2N1
    8%	-6%	5%[46.1 µM]	/	19%[46.1 µM]	3%	3%	/
CC(CCc1ccccc1)NC(=O)Cn1cccc1C(=O)c1ccccc1 (stereo not given)
    4%	7%	?	/	-17%[46.1 µM]	-4%	-5%	/
O=S(=O)(NCCc1ccccc1)c1cnc(Cl)c(Br)c1
    -15%	-23%	1%	/	-7%	14%	-7%	/
COc1ccc(/C=C/CN2CCN(CC(C)C)C(CCO)C2)cc1 (stereo not given)
    43%	1%	-4%[46.1 µM]	/	10%	-12%	1%	/
O=S(=O)(c1ccc(Cl)cc1)N1CCN(CCc2ccncc2)CC1
    9%	0%	-19%[46.1 µM]	/	?	2%	0%	/
CCC(=O)Nc1cc(-c2nn(C)c(=O)c3ccccc23)ccc1N1CCCCC1
    2%	-6%	?	0%	?	-23%	-1%	-8.0%
CC(=O)Nc1ccc(S(=O)(=O)NCC(=O)OCC(=O)c2cc(C)n(-c3ccc4c(c3)OCO4)c2C)cc1
    /	13%	?	?	-4%	-1%	9%	-3.7%
Cc1oc(-c2ccccc2)nc1CSc1nnc(C)n2c1cc1sccc12
    /	/	/	-10%	3%[46.1 µM]	-4%	/	-1.2%
Cn1c(N)c(C(=O)c2ccc(C#N)cc2)c(=O)n(C)c1=O
    -7%	2%	18%	-2%	2%	-11%	7%	-2.6%
Cc1ccn2cc(-c3ccc(S(=O)(=O)N4CCOCC4)cc3)nc2c1
    /	?	6%	?	/	/	4%	28µM*
COCC(=O)NCCSc1c(C)[nH]c2ccccc12
    5%	-9%	/	6%	/	-8%	3%	-1.3%
Cc1cc([N+](=O)[O-])nn1CC(=O)NCCCN1CCOCC1
    2%	0%	4%[46.1 µM]	/	-15%[46.1 µM]	-1%	0%	/
O=C(NCCc1cn2ccccc2n1)c1cc(COc2c(F)cccc2F)on1
    3%	-49%	-8%[46.1 µM]	/	6%	?	-5%	/
Cc1nn(-c2ccc(N3CCOCC3)nn2)c(C)c1CCC(=O)NCc1ccc(OC(C)C)cc1
    /	/	/	3%	-18%[46.1 µM]	-9%	/	0.2%
O=C(NCC(c1ccco1)N1CCc2ccccc21)C(=O)Nc1ccc(F)cc1F (stereo not given)
    1%	/	-20%	/	?	-3%	-20%	/
COc1ccccc1CNC(=O)c1[nH]c(C)c(C(C)=O)c1C
    -5%	0%	/	/	/	2%	2%	/
CC(C)(C)c1ccc(/C=C/C(=O)Nc2ccc(S(N)(=O)=O)cc2)cc1
    /	/	?	10%	-14%[46.1 µM]	?	/	-3.9%
Cc1cccc(/C=C2\Oc3cc(OS(C)(=O)=O)ccc3C2=O)c1
    -12%	0%	?	24%	-26%	1%	-57%	-8.3%
COC(=O)C1=C(C)N(C)C(=S)NC1c1ccc(OC)cc1OC (stereo not given)
    -16%	-5%	/	/	/	3%	0%	/
Cc1c(NC(=O)CSc2ccccc2C(=O)Nc2cccnc2)c(=O)n(-c2ccccc2)n1C
    -4%	3%	0%[46.1 µM]	-8%	-2%	-21%	8%	6.2%
CC(C)CC(=O)NC(=S)NNC(=O)c1ccc(NC(=O)C2CCCCC2)cc1
    33%	-20%	?	-3%	-22%	-19%	16%	5.9%
CCc1ccc(/C=C/C(=O)c2ccc(N3CCOCC3)cc2)cc1
    -10%	10%	-15%	2%	-11%	-17%	0%	-6.3%
COc1cc(-c2nc(-c3ccccc3)c(-c3cccs3)[nH]2)cc(OC)c1O
    17%	18%	8%	?	-10%	?	-6%	-11%
Cc1cccc(NC(=O)C(NS(=O)(=O)c2ccc3c(c2)CCC(=O)N3)c2ccccc2)n1 (stereo not given)
    -1%	-35%	8%	-8%	-1%	-25%	0%	7.0%
COc1ccc(NC(=O)Cn2nnc(C(=O)NCCc3ccccc3)c2N)cc1
    -5%	/	9%&9%[46.1 µM]	-2%	-28%[46.1 µM]	5%&-4%	0%	-3.0%
CCOC(=O)C1=C(C)NC(C)=C(C(=O)OCC)C1c1cc2ccc(C)cc2[nH]c1=O
    8%	-9%	?	?	?	-29%	1%	-2.8%
COc1ccccc1OCC(O)CN1CCOCC1 (stereo not given)
    -6%	2%	-1%	/	27%	-4%	-6%	/
CC1CCC2(CC1)NC(=O)N(CC(=O)NCc1cccs1)C2=O (stereo not given)
    2%	-6%	7%	13%	3%	-19%	11%	-2.9%
COc1ccc(CCN2CC(C(=O)NCCc3ccc(F)cc3)CCC2=O)cc1 (stereo not given)
    12%	4%	/	/	/	7%	3%	/
COc1cccc(NC(=O)CN(C)C(C)C(=O)Nc2ccc(C(C)=O)cc2)c1 (stereo not given)
    4%	7%	/	/	/	-23%	2%	/
CCCCCCn1nc(C(=O)N(CCCC)c2c(N)n(CCC)c(=O)[nH]c2=O)c2ccccc2c1=O
    4%	/	?	/	-3%	-8%	-1%	/
COc1ccc(CNC(=O)N2CCN(S(=O)(=O)c3ccccc3)CC2)cc1
    10%	-6%	-8%[46.1 µM]	/	-18%	-8%	1%	/
CCCCCCOC(=O)c1ccccc1N
    -15%	5%	25%	7%	1%	59%[activator]	?	-0.6%
CN1CCN(C(c2cccc(C(F)(F)F)c2)c2nnnn2Cc2ccccc2)CC1 (stereo not given)
    -15%	?	15µM*	4%	?	/	-2%	-0.2%
CCN1CCN(CC(=O)Nc2cc3c(cc2C(C)=O)OCO3)CC1
    4%	/	21%[46.1 µM]	/	-1%	7%	-1%	/
COc1ccc(CNC2CCCC2)c(OC)c1OC
    -4%	5%	3%	-6%	-1%	3%	2%	4.4%
Cc1cc(NCc2ccccn2)nc2ccccc12
    -2%	0%	-2%	-3%	17%	/	6%	-8.1%
C=CCOC(=O)C(C#N)c1nc2ccccc2nc1N1CCN(c2ccccc2OCC)CC1 (stereo not given)
    -11%	9%	2%	?	-15%	-8%	12%	-4.8%
O=C(Nc1ccccn1)c1ccc2c(c1)OCO2
    -16%	/	?	/	-27%[46.1 µM]	8%	0%	/
CCN(C(=O)COC(=O)c1cc([N+](=O)[O-])ccc1N1CCOCC1)C1CCS(=O)(=O)C1 (stereo not given)
    -23%	/	14%	/	10%	-19%	-1%	/
CN1C(N)=NC(=O)/C1=C/c1ccc(F)cc1
    16%	11%	/	/	/	-17%	0%	/
CC(C)(CNC(=O)c1ccc(S(=O)(=O)N2CCCC2)cc1)N1CCOCC1
    -8%	4%	-2%	/	-6%	-4%	-3%	/
CC1CN(S(=O)(=O)c2ccc(C(=O)Nc3sc4c(c3C(N)=O)CCN(C)C4)cc2)CC(C)O1 (stereo not given)
    /	-17%	/	-4%	/	/	17%	-5.9%
COc1ccc(C2C3=C(Nc4ncnn42)c2ccccc2CCC3)cc1 (stereo not given)
    6%	-6%	-14%	6%	9%	/	-4%	2.7%
CC1CCCN(C(=S)NCCc2ccccc2)C1 (stereo not given)
    -15%	-80%	-29%	4%	?	3%	16%	-4.0%
C1CCC(NC2=NCCC2)CC1
    5%	2%	5%	-8%	2%	20%	-9%	-2.9%
Cc1ccc(-n2ncc3c(NNC(=O)c4cccs4)ncnc32)cc1
    -11%	/	-27%[46.1 µM]	/	-22%	3%	-1%	/
COC(=O)c1oc2c(c1C)C(=O)CCC2
    -5%	0%	?	/	21%	-7%	1%	/
CCCCCn1c(=O)[nH]c2cc(C(=O)NCCN3C(C)CCCC3C)ccc2c1=O (stereo not given)
    -16%	-10%	-12%[46.1 µM]	/	-7%[46.1 µM]	-17%	15%	/
Cc1ccccc1-n1c(=O)c2c(n3cnnc13)-c1ccccc1CC21CCCCC1
    -4%	-3%	-8%	23%	-24%	?	-3%	-3.1%
CC(C)NC(=O)N(Cc1ccccc1)Cc1cccs1
    9%	0%	-2%	/	4%	-3%	1%	/

# Source: PubChem BioAssay
